VACV mCherry inh – qHTS for Stage-Specific Inhibitors of Vaccinia Orthopoxvirus: mCherry Reporter Primary qHTS. Vaccinia virus mCherry reporter infection, fluorescence; about a quarter of the inactives have no number. Potency, µM (doses to about 36.5 µM), without a hit: at the top dose activity change, negative = inhibition, hits mostly inhibitors. 0.63% of 310,000 active. AID 720579, 2013; active = well fitted inhibition curve with a large enough effect; inconclusive = small, poorly fitted or top-dose-only effect; inactive = no such curve, though single readings can be large or run the other way; tested in A549 cells; also: nearly all actives have a fitted effect of over 35% in size; inactives centre near -10
VACV Venus inh – qHTS for Stage-Specific Inhibitors of Vaccinia Orthopoxvirus: Venus Reporter Primary qHTS | 0.46% of 330,000 active | Potency, µM (highest dose often 36.5 µM), inactives show top-dose activity change, negative = inhibition, usual class: inhibitors | Vaccinia virus Venus reporter expression, fluorescence; active means well fitted inhibition curve with a large enough effect; inconclusive means small, poorly fitted or top-dose-only effect; inactive means no such curve, though single readings can be large or run the other way; tested in A549 cells; also: nearly all actives have a fitted effect of over 30% in size; inactives centre near -10
Numbers without * were called inactive; i = inactive; ? = inconclusive; nt = no result given; & = joins results of further samples; [ ] = another dose, or the depositor's remark. % is scaled to controls: 0 for no effect and ±100 for the full control effect; potency is read from the fitted curve at half-maximal effect. Outcome played no part in choosing rows; any-hit rate near 0.87%.

Below each SMILES: VACV mCherry inh	VACV Venus inh
- CCc1nnc(NC(=O)CSc2nnc(Cc3cc(=O)[nH]c(=O)[nH]3)n2-c2cccc(OC)c2)s1
→ 0%	5%
- COc1ccc2[nH]cc(C(O)CN3CCC(C(N)=O)CC3)c2c1 (centres undefined)
→ -16%	-5%
- CCC(=O)Nc1ccc(CC)cc1-c1nc2ccccc2n(CC(=O)Nc2ccccc2C)c1=O
→ -8%	-9%
- COc1ccc(N=Cc2ccccc2O)cc1
→ i	-7%
- Cc1cc(C)c(OCC(=O)OCC(=O)NCCC2=CCCCC2)c(C)c1
→ -13%	-11%
- C/C(=N\NC(=O)CCC(=O)Nc1ccc(C)c(C)c1)c1cccs1
→ -4%	-7%
- CCC(=O)OCCCNc1nc(-c2ccc(Cl)cc2)nc2ccccc12
→ -17%	-27%
- Cc1nn(C(=O)c2ccccc2)c(C)c1S(=O)(=O)N1CCOCC1
→ -9%	-8%
- CCN(CC)c1nc(C)nc2c1cnn2CCc1ccccc1
→ -6%	-18%
- Nc1cccc(C2=Nc3cccc4cccc(c34)N2)c1
→ 0%	-15%
- COc1c(C)cc(Br)cc1C(=O)Nc1ccc(-c2nc3ncccc3o2)cc1
→ ?	?
- NC(=O)CC[C@H](N)C(=O)O
→ -3%	-5%
- CC(=O)NC1C(=O)N(CCN2CCOCC2)c2ccc(Cl)cc21 (centres undefined)
→ -28%	-5%
- O=C(NC1CC1)C1=C[C@H](c2ccc(Br)cc2)C[C@H](OCc2ccc(CO)cc2)O1
→ i	-8%
- Cc1cc(C(=O)Nn2cnc3ccccc3c2=O)ccc1[N+](=O)[O-]
→ -19%	-18%
- O=C(Nc1ccc2c(c1)OCO2)N1CCCc2ccccc21
→ -12%	-11%
- CCOC(=O)C(C)n1cnc2c(nnn2-c2ccc(F)cc2)c1=O (centres undefined)
→ i	-2%
- CCOc1ccc(CCNC(=O)C(CC(C)C)N2Cc3ccccc3C2=O)cc1OCC (centres undefined)
→ -24%	-27%
- Cc1ccc(-c2nc(CNC(=O)Nc3ccccc3)c(C)o2)cc1
→ -27%	-25%
- COc1ccc(CC(=O)N/N=C/C=C/c2cccc([N+](=O)[O-])c2)cc1OC
→ 0%	-23%

The list goes on; it opens with the four that closed the last part.
Below each SMILES: VACV mCherry inh	VACV Venus inh
- CCOC(=O)C(C)n1cnc2c(nnn2-c2ccc(F)cc2)c1=O (centres undefined)
→ i	-2%
- CCOc1ccc(CCNC(=O)C(CC(C)C)N2Cc3ccccc3C2=O)cc1OCC (centres undefined)
→ -24%	-27%
- Cc1ccc(-c2nc(CNC(=O)Nc3ccccc3)c(C)o2)cc1
→ -27%	-25%
- COc1ccc(CC(=O)N/N=C/C=C/c2cccc([N+](=O)[O-])c2)cc1OC
→ 0%	-23%
- CCOC(=O)NC(c1ccccc1)C1CCCCC1=O (centres undefined)
→ -9%	-6%
- COc1ccc(/C=C2/C(=O)N(c3ccccc3)N=C2C)cc1
→ -16%	0%
- O=c1c2c3c(sc2nc2sc(CN4CCOCC4)cn12)CCCC3
→ nt	-23%
- Cc1ccc(C)c2[nH]c(=O)c(CCNC(=O)c3ccc(Br)o3)cc12
→ -7%	-13%
- COC(=O)c1ccc2nc(-c3ccc(OC)c(OC)c3)c(Cc3ccsc3)n2c1
→ 3%	1%
- O=C(OCc1nnc(-c2ccccc2)o1)C1CCN(C(=O)c2ccc(Cl)cc2)CC1
→ -12%	-7%
- COC(=O)N/N=C\C=C\c1ccc2c(c1)OCO2
→ nt	2%
- COc1cc(/C=N/NC(=O)c2ccc(=O)[nH]n2)ccc1O
→ 7%	1%
- COc1cccc(NC(=O)/C=C/c2ccc([N+](=O)[O-])cc2)c1
→ ?	-1%
- Cc1ccc(-n2ncc3c(=O)n(CC(=O)N4CCN(c5ccccc5)CC4)cnc32)cc1
→ i	-8%
- CCc1ccc(C2c3c(oc4ccc(F)cc4c3=O)C(=O)N2c2nc(C)c(C(=O)OC)s2)cc1 (centres undefined)
→ -8%	-3%
- CCc1nc2ccc(C(=O)NCc3ccc4c(c3)OCO4)cn2c1N(C)CCC(C)C
→ i	-5%
- CCCn1nnnc1NCc1cccc(Cl)c1
→ i	-19%
- N#CC1(C#N)C(C(N)=O)C1c1ccccc1 (centres undefined)
→ -20%	-4%
- COc1ccccc1Nc1cc(C(=O)NC2CCC(C)CC2)c2ccccc2n1 (centres undefined)
→ -8%	-8%
- C=CCSc1n[nH]c(-c2cccs2)n1
→ i	-22%
- CCCn1c(C(C)Nc2nc(C)cs2)nc2cc(Cl)c(Cl)cc21 (centres undefined)
→ -4%	-14%
- CCOc1ccccc1N1CCN(C(=O)CNC(=O)c2ccc(OC)c(OC)c2)CC1
→ ?	-19%
- Cc1cc(NC(=O)C(C)C)ncc1NC(=O)c1cccc(F)c1
→ -11%	-8%
- COCCCNC(=O)c1cc2c(-c3cccc(OC)c3)nn(C)c2s1
→ -25%&-12%	-25%&-3%
- Cc1ccnc(NC(=O)c2cc3c(=O)oc4ccc(C)cc4c3s2)c1
→ -13%	-2%
- CC1CCN(c2ccccc2NC(=O)c2ccc([N+](=O)[O-])o2)CC1
→ 14%	9%
- COc1cn(CC(=O)Nc2ccc(F)cc2)c(CN2CCCCC2)cc1=O
→ -13%	-8%
- Cc1ccc(S(=O)(=O)c2cn(Cc3ccccc3)c3cc(N4CCOCC4)c(F)cc3c2=O)cc1
→ -12%	-19%
- CC1CN(C(=S)Nc2ccc(SC(F)F)cc2)CC(C)O1 (centres undefined)
→ -6%	-5%
- COCCCNC(=S)NCCNc1nc2c(C)c(C)ccc2cc1C#N
→ -30%	-24%
- COCCCNC(=O)C[C@@H]1C[C@@]2(C(=O)OC)CCCCC=C2N(Cc2ccccc2)C1=O
→ -4%	-4%
- Cc1cc(O)c(Oc2cc(C)cc(O)c2O)c(O)c1
→ -14%	-10%
- O=C(Nc1ccc(Br)cc1)c1cccnc1N1CCOCC1
→ -7%	-21%
- O=C(OCC1CC(c2ccccc2)=NO1)c1ccc(Br)cc1 (centres undefined)
→ -9%	-5%
- COc1ccc(Cl)cc1NC(=O)CSc1nc(=O)n(CCN(C)C)c2c1CCCC2
→ -13%	?
- CCc1cccc(NC(=O)c2cccc3c2C(=O)N(CC2CCCO2)C3)c1 (centres undefined)
→ -1%	9%
- CCCSCCCNC(=O)CN1C(=O)COc2ccc(S(=O)(=O)N3CCCCCC3)cc21
→ -24%	-15%
- COCCCNc1nc(N)c([N+](=O)[O-])c(Nc2cc(OC)ccc2OC)n1
→ i	-21%
- O=C1c2cccc([N+](=O)[O-])c2C(=O)N1c1c[nH]c(=O)[nH]c1=O
→ i	-10%
- Cc1nc2ccccc2nc1CN1CCOc2ccc(C3(O)CCN(c4ccccc4F)CC3)cc2C1
→ -15%	-9%
- Cc1ccccc1C(=O)NC(=S)NCCN1CCOCC1
→ -7%	-12%
- COc1ccc(OC)c(N(CC(=O)Nc2ccccc2F)S(=O)(=O)c2ccccc2)c1
→ i	-8%
- COc1ccc(N2CCN(Cc3cc(=O)oc4cc(C)c(Cl)cc34)CC2)cc1
→ -13%	-9%
- Cc1ccc(C)c(NC(=O)c2ccc3ccccc3n2)c1
→ nt	-1%
- C[C@@H]1CN([C@@H](C)CO)C(=O)c2cc(Br)cnc2O[C@@H]1CN(C)C(=O)Nc1ccc(F)cc1
→ -2%	?
- O=C(NC1CCCCC1)c1ccc(CSc2nc3cccnc3n2Cc2ccccc2)cc1
→ -17%	-3%
- CC(C)CN(C)C(=O)CCc1nnc(Cc2cccc(C(F)(F)F)c2)o1
→ -1%	-15%
- Fc1cc(NCc2ccccc2)nc(NCc2ccccc2)n1
→ -5%	-5%
- O=C(COc1ccc(Br)cc1)Nc1ccc(CN2CCOCC2)cc1
→ -2%	-19%
- Cn1c(SCC(=O)c2ccccc2)nnc1-c1ccco1
→ -24%	-18%
- CN1CCc2nc(SCc3ccc(C(C)(C)C)cc3)c(C#N)cc2C1
→ i	-14%
- Oc1oc(-c2ccco2)nc1C=Nc1ccccc1
→ 6%	-17%
- COc1cc(C(=O)N2CCN(CC(O)COc3ccccc3)CC2)cc(OC)c1OC (centres undefined)
→ -14%	-10%
- Cc1cc(NC(=O)Nc2ccc(OCc3ccccc3)cc2)n(C)n1
→ -3%	-12%

Other results follow:
Below each SMILES: VACV mCherry inh	VACV Venus inh
- CC1CCC(C(=O)NC(C(=O)OCC(=O)c2ccc(Br)cc2)C(C)C)CC1 (centres undefined)
→ -2%	-3%
- CCCCN(CC)Cc1ccc(CNC(=S)Nc2ccc(C)cc2Cl)o1
→ -3%	-3%
- O=C(CN1C(=O)CCSc2ccc(S(=O)(=O)N3CCCC3)cc21)Nc1ccccc1Cl
→ 22%&-5%[7.34 µM]	6%&-7%[7.34 µM]
- Cc1ccc(NC(=O)C2CCCN(S(=O)(=O)c3cccc4cccnc34)C2)c(Br)c1 (centres undefined)
→ -16%	-17%
- COC(=O)C1=C(\O)CCCC/C=C\1C(=O)O
→ -13%	-4%
- COc1cc2c(oc(=O)c3cc(C)cc(OC)c32)c2c(C3OC(C)C(O)C(C)(O)C3O)ccc(O)c12 (centres undefined)
→ ?	?
- CC(=O)Oc1ccc(C(=O)Nc2nnc(C)s2)cc1
→ -17%	-2%
- COc1cccc(/C=N/NC(=O)c2[nH]nc3c2CCc2ccccc2-3)c1
→ -1%	-19%
- O=C(CC(c1ccccc1)c1ccccc1)NCc1cccnc1
→ -13%	-8%
- COCCNC(=O)C1(C)CCN(C(=O)c2sccc2C)C1 (centres undefined)
→ -8%	2%
- CCc1ccc2[nH]c(=O)c(CN(Cc3ccccc3)Cc3nnnn3Cc3ccco3)cc2c1
→ nt	?
- O=C(NCc1ccccc1)c1ccccc1CO
→ -1%	-16%
- CCC1(C(=O)NC(=Nc2ccccc2)Nc2ccccc2)CCOC1=O (centres undefined)
→ -15%	-7%
- CCCOc1ccc(C(=O)Nc2ccc(S(=O)(=O)Nc3onc(C)c3C)cc2)cc1
→ -8%	-22%
- O=C1CCCCC1Nc1ccc2ccccc2c1 (centres undefined)
→ ?	-17%
- CCCN1CNc2c(c(=O)[nH]c(=S)n2Cc2ccc(OC)c(OC)c2)C1
→ -10%	-10%
- C/C(=N\Nc1cc(N2CCOCC2)ncn1)c1cccc([N+](=O)[O-])c1
→ ?	-27%
- COc1cc(C(c2c(C)[nH][nH]c2=O)c2c(C)[nH][nH]c2=O)ccc1OC(=O)c1ccccc1OC
→ -17%	-9%
- CCOC(=O)c1sc(NNC(=O)c2ccc(F)cc2)nc1C
→ -24%	-24%
- NC(=O)[C@@H]1CCOc2c(I)cc([N+](=O)[O-])cc2C(=O)N[C@@H](CO)C(=O)NCC(=O)N1
→ -23%	-5%
- CCOc1cc(-c2nc(-c3ccc(C)nc3OC)no2)cc(OCC)c1OCC
→ -11%	-4%
- COc1ccc(C(=O)Nc2ccc(-n3nncc3-c3ccc(OC)c(OC)c3)cc2)cc1
→ 5%	-2%
- COc1cccc(CN2C(=O)C(C)Oc3ccccc32)c1 (centres undefined)
→ i	-7%
- O=C(COc1ccccc1Cl)Nc1ccc(NC(=O)c2ccco2)cc1
→ i	-15%
- Nc1ccn([C@@H]2O[C@H](CNCc3cnc(N4CCOCC4)s3)[C@@H](O)[C@H]2O)c(=O)n1
→ -12%	-14%
- Cc1cccc(/C=N/n2c(-c3ccncc3)n[nH]c2=S)c1
→ i	-12%
- CCOc1ccc(C(c2c(O)cc(C)n(CCOC)c2=O)N2CCC(C)CC2)cc1 (centres undefined)
→ -13%[7.34 µM]	-5%[7.34 µM]
- CCn1cc(C(=O)N[C@H](C(=O)NCCCn2ccnc2)C(C)C)c(=O)c2cc3c(cc21)OCO3
→ i	-4%
- COc1cc(CC(=O)OCC(=O)Nc2sccc2C(N)=O)cc(OC)c1OC
→ i	-12%
- CCOc1ccc(C(=O)NC(C(=O)NCc2cccnc2)C(C)C)cc1 (centres undefined)
→ -1%	5%
- COc1ccc(S(=O)(=O)N2CCCC(C(=O)O)C2)cc1Cl (centres undefined)
→ nt	-17%
- Cc1ccc(CNCCCSc2ncccn2)cc1
→ -11%	-3%
- O=c1[nH]c(CN2CCN(S(=O)(=O)c3cccs3)CC2)nc2c(Br)cc(Br)cc12
→ 8%	5%
- CC(C)C[C@H]1CNC(=O)C(=O)N1C[C@H](Cc1ccc(O)cc1)NC(=O)CC12CC3CC(CC(C3)C1)C2
→ -1%	5%
- CCCC(C)C(=O)NCc1ccncc1 (centres undefined)
→ -11%	-8%
- CC(C)(C)C(=O)Cn1ncc(N2CCOCC2)c(Br)c1=O
→ i	-13%
- Cc1nc(NCC(c2ccccc2)N(C)C)c2c(C)c(C)sc2n1 (centres undefined)
→ i	-11%
- CCN1C(=O)[C@H]2[C@@H](c3ccc(OC)cc3)N[C@]3(CCCN(Cc4ccc(C(F)(F)F)cc4)C3=O)[C@H]2C1=O
→ i	-19%
- CCCOc1cccc(/C=N/NC(=O)c2csc(C)c2C)c1
→ i	-21%
- COc1ccc(-n2cnc3cc(C(=O)NCCN4CCOCC4)ccc32)cc1
→ i	-5%
- CC1C(=O)N(Cc2cn(CCC3OCCCO3)nn2)CCS(=O)(=O)N1Cc1ccc(-c2cccc(N(C)C)c2)cc1 (centres undefined)
→ -3%	-5%
- CS(=O)(=O)Nc1ccccc1C(=O)NCc1ccco1
→ -14%	-2%
- Cc1ccc(-c2nc(-c3cc4cccc(OCc5cccc(F)c5)c4oc3=O)no2)cc1
→ -1%	3%
- Cc1cccc(COc2ccccc2C(=O)NC2CCC(O)CC2)c1 (centres undefined)
→ -22%	-14%
- OC1c2cc(Cl)ccc2-c2c(Cl)cc(Cl)cc21 (centres undefined)
→ -7%	10%

Assay outcomes: PubChem BioAssay, National Center for Advancing Translational Sciences (NCATS)
